# D2 ag: Beta-Arrestin HTS for Positive Allosteric Modulators of the Human D2 Dopamine Receptor: Agonists; D(2) dopamine receptor (Homo sapiens), P14416; DiscoveRx PathHunter D2 beta-arrestin, luminescence, 90 min; 100% = 57 uM dopamine signal; activation, % (concentration not given with the values); 360,000 compounds, 0.084% hits; in the data active = activation above about 40%; inconclusive = about 15% to 40%; inactive = below about 15%; note: the text of the record calls up to 30% inactive
# Target sequence (P14416 whole entry, looked up): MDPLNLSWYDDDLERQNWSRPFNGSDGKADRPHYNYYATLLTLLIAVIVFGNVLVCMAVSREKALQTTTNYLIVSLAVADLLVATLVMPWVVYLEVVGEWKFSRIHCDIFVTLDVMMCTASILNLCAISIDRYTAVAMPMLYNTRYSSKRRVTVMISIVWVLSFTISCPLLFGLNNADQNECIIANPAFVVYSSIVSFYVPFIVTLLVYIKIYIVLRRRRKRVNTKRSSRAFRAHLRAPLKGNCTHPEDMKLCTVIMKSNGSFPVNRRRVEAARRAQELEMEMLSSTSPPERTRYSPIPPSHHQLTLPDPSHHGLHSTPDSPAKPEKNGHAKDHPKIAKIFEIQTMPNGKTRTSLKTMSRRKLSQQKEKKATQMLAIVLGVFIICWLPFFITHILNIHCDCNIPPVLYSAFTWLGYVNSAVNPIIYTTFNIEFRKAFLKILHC
#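 DiscoveRx PathHunter D2 beta-arrestin cells (2,100/well) attached overnight, then compound-stimulated 90 min at 37 C in HBSS/10 mM HEPES/0.1% Tween-20 buffer; beta-galactosidase complementation read by luminescence after 1 h at ambient temperature. Dopamine 57 uM final (EC100) as control.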
# CtBP-E1A inh: qHTS Assay for Inhibitors of the CtBP/E1A Interaction. CtBP / adenovirus E1A interaction (AlphaScreen). AlphaScreen GST-E1A/His-CtBP binding, 1536-well; active compounds read low; control for the full effect not named in the record. activity change, % (test concentration not listed). 340,000 compounds, 0.49% hits. AID 651724, 2012; in the data active means activity change below about -65%; inconclusive means about -30% to -65%; inactive means above about -30%; note: % is set by controls: 0 for no effect and ±100 for the full control effect
#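 GST-E1A and His-tagged CtBP (125 nM each as 5X stock) were preincubated with pin-transferred compound for 2 h at 37 °C in the dark, then glutathione donor and nickel acceptor beads were added for 1 h before AlphaScreen reading.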
# Sfp inh: qHTS Assay for Inhibitors of Bacillus subtilis Sfp phosphopantetheinyl transferase (PPTase). Potency, µM, inactives show max response, negative = inhibition, actives largely listed as inhibitors. 4'-phosphopantetheinyl transferase ffp (Bacillus subtilis), Q9F4F7. AID 1490, 2009. 310,000 compounds, 3.5% hits. Biochemical Sfp PPTase activity, qHTS; active = well fitted inhibition curve with a large enough effect; inconclusive = small, poorly fitted or top-dose-only effect, or another doubt; inactive = no such curve, though single readings can be large or run the other way;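 note: the enzyme is Sfp with the accession as filed and its product quenches rhodamine fluorescence; potency is the fitted concentration of half-maximal effect; 0% = enzyme reaction without inhibitor and -100% = no enzyme wells; top concentration of the series not given in the record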
#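 After 15 min at room temperature with compound, 15 nM Sfp received 5 uM rhodamine-CoA plus 12.5 uM BHQ-2-ybbR (50 mM Hepes pH 7.6, 10 mM MgCl2). Rate came from the fluorescence difference over 30 min, ex 525/em 598 nm.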
# D2 potentiator: Beta-Arrestin HTS for Positive Allosteric Modulators of the Human D2 Dopamine Receptor: Potentiators; potentiation, % (no concentration beside the values); DiscoveRx D2 beta-arrestin cells, luminescence, 90 min; 100% = 57 uM dopamine signal; 360,000 compounds, 0.23% hits; AID 624464, 2012; D(2) dopamine receptor (Homo sapiens), P14416; active = potentiation of 50% or more; inconclusive = 30% to 50%; inactive = 30% or less;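 note: compound concentration not given in the record; tested on top of an EC20 dose of dopamine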
#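 PathHunter beta-arrestin assay in DiscoveRx D2 cells. Compounds were added with an EC20 of dopamine (50 nM final) for 90 min at 37 deg C. Luminescence was read 1 h after detection reagent, with 57 uM dopamine as the EC100 control.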
# PINK1 modulator: A Quantitative High throughput Screen to Identify Chemical Modulators of PINK1 Expression; PINK1 immunofluorescence, high-content cytometry, 24 h; Potency, µM (top dose mostly 76.6 µM), for inactives: at the highest dose activation (PINK1 increase), usual class: activators; 410,000 compounds, 0.2% hits; active = well fitted activation curve with a large enough effect; inconclusive = small, poorly fitted or top-dose-only effect; inactive = flat fitted curve, though single readings scatter; cell line not stated here;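 note: potency is the fitted concentration of half-maximal effect; % of control where 0% means no effect; nearly all actives have a fitted effect of over 65% in size; a mitochondrial uncoupler was the plate control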
#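 Cells are seeded, rested 12 hours, then given compound at five concentrations or DMSO for 24 hours. After fixation, blocking and antibody staining, PINK1 amount and mitochondrial localization are scored; CCCP serves as control.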
# Six1-Eya2 inh: qHTS Assay for Inhibitors of the Six1/Eya2 Interaction; 360,000 compounds, 0.56% hits; AlphaScreen GST-Six1/His-Eya2 binding, biochemical; active compounds read low; control for the full effect not named in the record; activity change, % (concentration not given with the values); Homeobox protein SIX1 (Homo sapiens) + Protein phosphatase EYA2 (Homo sapiens), …; in the data active = activity change below about -65%; inconclusive = about -30% to -65%; inactive = above about -30%; note: % is set by controls: 0 for no effect and ±100 for the full control effect
#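 Compounds are tested against tagged Six1 and Eya2 proteins bridged by glutathione donor and nickel acceptor beads; after a one-hour incubation at 37 °C without light, AlphaScreen emission is recorded.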
# TRPV1 potentiator: HTS Assay for Compounds that Act as Potentiators of the Vanilloid Receptor 1; TRPV1-expressing cells, Fluo-8 calcium influx, capsaicin EC20 potentiation; host cell line not named in the record; control for the full effect not named in the record; potentiation, % at 8.33 µM; 320,000 compounds, 0.02% hits; active means potentiation above 80%; inconclusive means 30% to 80%; inactive means below 30%; note: 0% is about no effect
#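 TRPV1-expressing cells were cultured overnight at 35.5C and loaded with Fluo-8 calcium dye for 40 to 90 min at room temperature. After a 10 s baseline, compound was added and calcium influx was read kinetically for 3 min (ex 480/em 520 nm).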
# Numbers without * were called inactive; ? = inconclusive; / = not tested or not shown; & = joins results of further samples; [ ] = remark or other dose.
SMILES,D2 ag,CtBP-E1A inh,Sfp inh,D2 potentiator,PINK1 modulator,Six1-Eya2 inh,TRPV1 potentiator
O=C(NCc1ccc(Cl)cc1)C(=O)NCC1OCCN1S(=O)(=O)c1cccs1 (stereo not given),-1.8,2,-7%,5,0.6%,6,17
Cc1noc(C)c1C(=O)OCC(=O)c1c[nH]c2ccccc12,2.6,-5,4%,4,1.3%,1,-2
COc1cccc(CNC(=O)CCN2C(=S)NC(C)(C)CC2C)c1 (stereo not given),1.0,-10,9%,-7,0.4%,-1,-11
CCOc1cc(/C=C2\SC(=NC)N(C)C2=O)c(Br)cc1OC(C)=O,-2.7,/,3%,-3,0.7%,-3,-3
O=C(CN1C(=O)COc2ccccc21)c1ccc(Cl)cc1,-2.0,9,-1%,-13,-0.1%,12,-12
C=C1C(C(=O)Nc2ccccc2)C1C(=O)Nc1ccccc1 (stereo not given),-23,/,-2%,-9,2.7%,3,8
CC(C)(C)c1ccc(C(=O)n2cnc3ccccc32)cc1,-0.8,/,19%,-16,0.0%,-2,-8
COc1cccc2cc(C(=O)N3CCCc4ccccc43)oc12,-2.7,4,2%,5,4.6%,-1,4
O=C(C1CCN(S(=O)(=O)N2CCOCC2)CC1)N1CCOCC1,-1.7,1,4%,-1,2.8%[38.3 µM],2,-5
CC1(C(=O)O)CCCN1C(=O)c1ccc(Cl)cc1Cl (stereo not given),0.7,14,/,-5,0.7%,12,/
CCc1nc2ccccc2c(=O)n1/N=C/c1ccc(Cl)cc1,-0.3,10,/,-5,8.4%,5,/
CCOc1cc([N+](=O)[O-])c2nc(N)sc2c1,-5.0,-9,0%,-9,-1.1%,-5,1
CN(C)C(CN1C(=O)C2CC=CCC2C1=O)c1cn(C)c2ccccc12 (stereo not given),-2.1,-9,7%,-3,-1.7%,-7,-2
CC(=O)Nc1ccc(NC(=O)CC(c2ccccc2)c2ccccc2)cc1,1.3,1,10%,-32,0.7%,-5,-15
Cc1ccc(S(=O)(=O)NC(=O)NC(C)c2ccc(F)cc2)cc1 (stereo not given),-0.6,-2,14%,-1,1.1%,11,2
CN1CCCC(OC(=O)CCCCC(=O)OC2CCCN(C)C2)C1 (stereo not given),-3.4,-11,18%,-7,0.0%,7,-3
O=C(CN1C2CCCC1CC(NC(=O)c1ccccc1)C2)Nc1ccccc1 (stereo not given),-1.4,-4,17%,-14,0.0%,5,6
COc1cc(CNCCc2ccccc2)ccc1OCC(N)=O,-4.9,5,3%,-23,0.9%,14,10
COc1cc(OC)c(N(C)S(=O)(=O)c2cccc(C(=O)OCc3c(C)noc3C)c2)cc1Cl,-1.7,7,5%,4,6.1%,-8,1
COc1ccc(NC(=O)CSc2nnnn2-c2cccc(OC)c2)cc1,0.5,-3,/,-3,2.3%,5,/
O=C(Nc1ccccc1F)c1ccc(Cn2cc(Cl)cn2)cc1,5.2,7,-26%,-3,3.4%,1,11
CC1Cc2ccccc2N1C(=O)CN1C(=O)NC(C)(c2ccc3c(c2)OCCO3)C1=O (stereo not given),-6.7,-2,-15%,-30,-2.0%,-3,-6
COc1ccc(-c2noc(N3CCC(C(=O)Nc4ccccc4F)CC3)n2)cc1,0.0,7,3%,-1,8.9%,2,-28
CCOc1ccc2nc(SCC3CC3(Cl)Cl)[nH]c2c1 (stereo not given),-1.0,4,9%,-11,10%,1,-14
O=C(Cn1cc(C(=O)C(F)(F)F)c2ccccc21)N1CCOCC1,-7.2,-8,3%,-6,1.8%,9,3
CN(C)c1cccc(C(=O)OCC(=O)Nc2nccs2)c1,-1.7,-22,-13%,-7,-0.1%,-21,-12
Cc1ccccc1-n1c(C)nnc1SC(C)C(=O)NCC1CCCO1 (stereo not given),-5.0,3,/,-2,-0.5%,0,2
c1ccc2c(c1)OCC(c1csc3ncnc(N4CCCCC4)c13)O2 (stereo not given),-4.2,6,-10%,-8,4.6%,-2,-3
CSc1nnc(SCc2nc3sc(C(=O)O)c(C)c3c(=O)[nH]2)s1,1.2,0,13µM*,-3,1.7%,?,-4
Cc1ccc(Cl)cc1N1CCN(C(=O)C(C)n2ncn3cccc3c2=O)CC1 (stereo not given),0.1,-7,-7%,-5,0.5%&0.1%,0,20
CS(=O)(=O)Nc1cccc(C2=NN(C(=O)CCCC(=O)O)C(c3cccs3)C2)c1 (stereo not given),-2.8,9,1%,-9,0.9%,6,-3
C=CCOc1ccc(CNn2cn[nH]c2=S)cc1OCC,1.1,9,?,-15,20%[38.3 µM],-2,15
O=C(O)C1C2CC(C(Br)C2Br)C1C(=O)O (stereo not given),-3.2,2,/,14,-0.4%,2,/
O=C(O)CCCC(=O)Nc1nc2n(n1)C(c1ccc(F)cc1)CC(c1ccc(Cl)cc1)N2 (stereo not given),-2.5,-7,-4%,-9,7.9%[38.3 µM],-4,18
Cc1ccc(C(C(=O)NC2CCCC2)N(C(=O)Cc2cccs2)c2cccc(C)c2C)o1 (stereo not given),-0.4,15,-7%,-17,4.2%[38.3 µM],-11,-18
COCCNc1nc2cc(-c3ccsc3)sc2c(=O)n1C,-8.3,-19,/,-35,3.0%,-14,/

# Record cards, as listed above. Order of screens: D2 ag | CtBP-E1A inh | Sfp inh | D2 potentiator | PINK1 modulator | Six1-Eya2 inh | TRPV1 potentiator
# `CCOc1cc([N+](=O)[O-])c2nc(N)sc2c1` in the list: -5.0 | -9 | 0% | -9 | -1.1% | -5 | 1
# `COc1cc(OC)c(N(C)S(=O)(=O)c2cccc(C(=O)OCc3c(C)noc3C)c2)cc1Cl` in the list: -1.7 | 7 | 5% | 4 | 6.1% | -8 | 1
# `COc1cccc(CNC(=O)CCN2C(=S)NC(C)(C)CC2C)c1` (stereo not given) in the list: 1.0 | -10 | 9% | -7 | 0.4% | -1 | -11

# (more compounds)
SMILES,D2 ag,CtBP-E1A inh,Sfp inh,D2 potentiator,PINK1 modulator,Six1-Eya2 inh,TRPV1 potentiator
Cc1cc(C)cc(N(C(=O)c2csnn2)C(C(=O)NC2CCCCC2)c2ccccn2)c1 (stereo not given),-6.2,0,16%,-7,4.5%,2,-7
CCC(=O)c1c(CC)c2n3c1CC[C@H]3CCC2,-0.6,/,/,-1,2.3%,-4,-6
CCOc1ccc(CCNC(=O)CS(=O)(=O)Cc2nc(-c3ccccc3F)oc2C)cc1,1.3,2,13%,-6,4.5%,-1,-9
CCN(CC)C(=O)CSc1nc2c(sc(=S)n2CC)c(=O)n1-c1ccccc1,-1.4,5,8%,-4,-1.0%,-2,-9
O=C(CNS(=O)(=O)c1ccc(Cl)cc1)OCC(=O)N1CCCc2ccccc21,-1.5,5,21%,6,1.8%,0,3
Cc1csc(=O)n1CCC(=O)OCC(=O)NNC(=O)c1ccc(Cl)cc1,-0.4,-25,/,1,-1.2%,4,-23
CCC(CC)c1nnc(NC(=O)CN2C(=O)NC3(CCCC3)C2=O)s1,-2.3,0,13%,18,-1.6%,-2,-14
Cc1nc(CNS(=O)(=O)c2ccc3ccccc3c2)cs1,-5.0,1,6%,-10,0.1%,2,-8
COc1cc(N2CCOCC2)ccc1C=C(C#N)C#N,0.3,21,14%,-25,2.7%,-2,-2
Cc1ccc(SCCC(=O)OC(C(=O)NC(N)=O)C(C)C)cc1 (stereo not given),-1.3,-2,-15%,0,3.3%,10,-2
COc1ccccc1-n1ccnc1SCC(=O)NC(C)(C)C,-5.0,9,19%,-9,1.2%,3,-11
Cc1cnc(NC(=O)Nc2ccc(OCc3ccccc3)cc2)c(Br)c1,-0.7,-4,-8%,5,4.4%,-3,4
NS(=O)(=O)c1ccc(CCNS(=O)(=O)c2ccccc2)cc1,3.0,-8,4%,-6,-0.2%,4,2
CSc1nc(N(C)C)nc(N(C)C#N)n1,-3.1,14,14%,-9,1.4%,0,2
Cc1cc(-c2ccccc2)n(-c2ccc(C(=O)NC(C)C)cc2)n1,0.3,-1,12%,-6,8.5%,-9,/
CCN(CC)CCN(C(=O)c1ccc2c(c1)CCCC2)c1nc2ccc(F)cc2s1,1.8,-7,-28%,-18,?,-11,21
NC(=O)C1(N2CCCCC2)CCN(S(=O)(=O)c2cc(Cl)ccc2Cl)CC1,5.9,-14,12%,-4,0.3%,-7,-13
CC(C)(O)C#Cc1ccc(CN2CCN(Cc3ccccc3)C(CCO)C2)cc1 (stereo not given),-3.2,2,-1%,-5,-1.4%,15,-5
CC(C)(C)OC(=O)COc1ccc(/C=N/NC(=O)CN2CCCCC2)cc1,-2.5,4,12%,0,-1.7%,6,21
CN(C)c1ccc(CN(C(=O)/C=C/c2ccccc2Cl)C2CCS(=O)(=O)C2)cc1 (stereo not given),-2.3,?,1%,-9,-0.6%,?,-7
C#CCOCCOCCOCCNc1nc(N2CCN(C(=O)[C@H](Cc3ccc(O)cc3)n3cc([C@@H](N)C(C)CC)nn3)CC2)nc(N2CCN(C(=O)[C@H](Cc3cc4ccccc4[nH]3)n3cc([C@@H](N)C(C)CC)nn3)CC2)n1 (stereo not given in full),-4.9,?,-29%,-24,1.3%,-26,12
O=C(NCCc1ccc(Cl)cc1)c1ccc(CNc2c(N3CCOCC3)c(=O)c2=O)cc1,-2.9,/,-8%,1,-1.0%,0,-5
CC1(C)NC(=O)N(CC(=O)OCC(=O)Nc2sccc2C#N)C1=O,8.0,/,3%,-8,0.1%,-5,?
O=C1CC(c2ccccc2)=Nc2ccccc2N1Cc1ccccc1,-2.9,-1,5%,-9,1.5%,9,-11
NS(=O)(=O)c1ccc(CCNC(=O)CN2CCN(Cc3cccc(C(F)(F)F)c3)CC2)cc1,1.8,2,15%,-3,-2.3%,0,1
Cn1nnnc1SCC(=O)N1CCc2ccccc21,-1.4,-4,-6%,-7,0.8%,-1,2

# Screens deposited in PubChem BioAssay by National Center for Advancing Translational Sciences (NCATS).
